Screening data: PubChem BioAssay, several laboratories
HNF4A DNA FP – change in binding of human HNF4 alpha to DNA; P41235; HNF4a-FITC DNA binding, fluorescence polarization, 1 h; activity change, % at 10 µM; 360,000 compounds, 0.3% hits; in the data active means activity change above about 30%, passing the limit was not always enough;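 further: controls were the assay level and a saturating level of protein; the project sought stronger binding though the title names inhibitors; some compounds called inactive have numbers as strong as hits; positive values seem to mean higher polarization but the record does not say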
Target sequence (P41235 whole entry, looked up): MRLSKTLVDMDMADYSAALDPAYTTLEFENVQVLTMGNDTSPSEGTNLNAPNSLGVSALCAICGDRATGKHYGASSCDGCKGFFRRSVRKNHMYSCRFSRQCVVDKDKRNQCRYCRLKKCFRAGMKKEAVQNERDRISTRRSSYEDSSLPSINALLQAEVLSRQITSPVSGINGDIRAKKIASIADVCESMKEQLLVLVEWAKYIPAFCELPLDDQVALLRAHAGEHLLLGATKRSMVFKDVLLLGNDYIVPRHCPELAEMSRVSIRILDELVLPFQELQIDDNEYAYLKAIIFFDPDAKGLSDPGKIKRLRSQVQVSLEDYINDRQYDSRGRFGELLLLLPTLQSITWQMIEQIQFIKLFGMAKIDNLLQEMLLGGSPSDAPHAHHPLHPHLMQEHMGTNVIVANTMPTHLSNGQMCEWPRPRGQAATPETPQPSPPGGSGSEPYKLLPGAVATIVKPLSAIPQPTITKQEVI
LANA-H2A inh – blocks KSHV LANA binding to histone H2A/H2B | 320,000 compounds, 0.6% hits | Q9QR71 | cell-free LANA-H2A/H2B peptide, fluorescence polarization | inhibition, % (concentration not given with the values); in the data active means inhibition mostly above about 10%, no sharp cut-off; inactive means mostly below about 6.7%;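 further: stock transfer was 7.5 nL into about 10 µL; 0% = median of vehicle wells and 100% = median of positive control wells; one replicate is shown; the record names a cut of 25% in any replicate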
E coli growth – blocks Escherichia coli growth. OD600, 23 h; stronger effect = lower value. OD600 absorbance (concentration not given with the values). 330,000 compounds, 0.21% hits;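 active means OD600 absorbance below the run mean of sample wells minus 3.6 SD, in any replicate, cut at about 0.56 in these data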;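 further: stock transfer was 300 nL into about 60 µL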
ALR inh – inhibitors of human sulfhydryl oxidase ALR | P55789 | purified ALR, DTT oxidation, H2O2 HRP-luminol luminescence | inhibition, % (no concentration beside the values) | 290,000 compounds, 3.8% hits;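 active means mean and each replicate at 75% or more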;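 further: stock transfer was 7.5 nL into about 7.5 µL; 0% = neutral wells and 100% = wells with inactivated enzyme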
Target sequence (P55789 whole entry, looked up): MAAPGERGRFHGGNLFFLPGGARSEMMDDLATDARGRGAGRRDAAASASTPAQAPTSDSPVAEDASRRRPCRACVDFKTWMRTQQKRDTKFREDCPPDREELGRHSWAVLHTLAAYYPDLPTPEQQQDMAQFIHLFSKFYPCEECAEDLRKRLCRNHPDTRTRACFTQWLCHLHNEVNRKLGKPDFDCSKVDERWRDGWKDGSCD
UCH37 inh – blocks the human deubiquitinase UCH37. purified proteasome/UCH37, Ub-AMC cleavage fluorescence. inhibition, % (concentration not given with the values). 330,000 compounds, 0.33% hits. AID 588478;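 active means mean of two replicates above 20%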;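 further: 0% = compound-free wells with enzyme and 100% = wells lacking proteasome; stock transfer was 100 nL into about 20 µL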
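assay system = human UCH37 enzyme supplied as purified proteasome complex | amount = proteasome at 0.15 nM in the dispensed enzyme solution | schedule = 30 min compound-proteasome preincubation then 25 min substrate reaction, room temperature | measured by = fluorescence, ex 355 nm, em 460 nm | benchmarks = no-proteasome wells (full inhibition) and compound-free wells (no inhibition)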
Beta2AR agonist – agonists of human beta-2 adrenergic receptor inducing internalization; P07550; Am2.2-beta2AR cells, FAP receptor internalization, flow cytometry; reference of the scale not given here; response, % (concentration not given with the values); 340,000 compounds, 0.43% hits;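 active means response above a set limit, near 3 SD of response in nonfluorescent compounds, cut at about 42% in these data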;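 further: stock transfer was 100 nL into about 11 µL; a reference agonist was the positive control; negative values mostly stem from fluorescent compounds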
FGF22 binding – binders of recombinant human FGF22 by thermal shift; SYPRO orange fluorescence; percent of sucrose octasulfate shift, DMSO zero; 340,000 compounds, 1.5% hits; Q9HCT0; calls only at 9.99 µM; AID 651658;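 active means melting point raised past a set limit in the mean and every replicate; three in four hits are not shown here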
Target sequence (Q9HCT0 whole entry, looked up): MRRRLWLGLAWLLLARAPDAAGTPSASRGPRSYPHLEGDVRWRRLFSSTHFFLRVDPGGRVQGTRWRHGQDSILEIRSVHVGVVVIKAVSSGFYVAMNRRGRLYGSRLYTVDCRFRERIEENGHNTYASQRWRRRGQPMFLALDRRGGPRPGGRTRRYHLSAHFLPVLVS
The depositor's hits bear a star; i = inactive; nt = not tested or not shown; + = active, no number. This is a subset; rates above refer to the full screens.

SMILES	HNF4A DNA FP	LANA-H2A inh	E coli growth	ALR inh	UCH37 inh	Beta2AR agonist	FGF22 binding
S=C(NCc1ccco1)N1CCN(C/C=C/c2ccccc2)CC1	-2.4	-5.3	0.67	nt	3.3	-7	i
N#Cc1ccc(OCC(=O)OCC(=O)c2ccc[nH]2)cc1	2.9	nt	0.66	nt	0.2	49*	i
S=c1nc(-c2ccccc2Cl)n(Cc2cccnc2)c2c1CCCC2	1.1	0.0	0.71	99*	12	-9	i
C/C(=N\OC(=O)Nc1ccccc1)c1ccc(C)cc1	-1.4	4.4	nt	-3	nt	-6	i
COc1ccc(C=NNC(=O)CCCCC(=O)NN=Cc2ccc(OC)cc2)cc1	-3.2	nt	0.7	nt	2.9	-6	i
O=C(O)C1CCC(=O)N1C1CCCC1 (centres undefined)	2.3	0.6	0.68	2	1.2	7	nt
C[C@H]1CCC[C@@]2(O[C@@H](CCO)C[C@@H](O)[C@@H]2O)O1	1.9	-5.2	nt	nt	1.6	1	i
CC(C)C(C)NC(=O)CSc1nc2scc(-c3ccco3)c2c(=O)n1-c1ccccc1 (centres undefined)	3.1	0.0	0.8	96*	-8.3	-4	nt
COCc1ccc(-c2c(-c3ccsc3)oc(=O)c3cc(OC)c(OC)cc23)cc1	3.1	0.1	0.69	0	-2.8	6	i
CC(C)CN(C(=O)c1cccc(S(=O)(=O)N2CCN(Cc3ccccc3)CC2)c1)C1CCS(=O)(=O)C1 (centres undefined)	2.6	-3.2	0.59	-13	1.4	14	i
Cc1cccn2cc(CCNS(=O)(=O)c3ccc([N+](=O)[O-])cc3)nc12	3.8	2.8	0.79	nt	4.0	-1	i
COc1ccc(N/C=C(\C=C\C#N)S(=O)(=O)c2ccccc2)cc1	1.4	1.9	0.67	nt	-93	0	i
Cc1cccc(C(=O)NNC2=C(C(=O)C(F)(F)F)CCC2)c1O	-4.5	2.3	0.73	97*	-4.8	12	nt
CC1(C2CC2)NC(=O)N(CC(=O)N2CCN(c3cccc(C(F)(F)F)c3)CC2)C1=O (centres undefined)	-2.8	-3.8	0.71	4	0.5	1	i
Cc1c(N)cccc1[N+](=O)[O-]	1.1	-6.9	0.67	21	4.1	-2	i
Brc1c(CSc2nc3ccccc3o2)nc2ncccn12	1.5	-0.5	0.71	100*	-142	-16	nt
Cc1nc2c(n1C1CCCCC1)C(=O)c1ccccc1C2=O	0.9	2.1	0.66	-9	9.0	-21	nt
Cc1ccc(C(=O)N(Cc2nc3ccccc3c(=O)[nH]2)C2CCCC2)cc1	-1.9	0.1	0.66	-4	1.6	-10	nt
CC1CC(c2ccccc2)=Nc2ccccc2N1 (centres undefined)	-1.9	-2.4	0.63	-31	1.1	4	i
COC(=O)CCCC(=O)NC(C)c1cnn(-c2ccccc2C)c1C (centres undefined)	17	-1.8	0.66	-3	0.5	-2	i
CCOc1ccc(-n2ccnc2SCC(=O)N2CCCc3ccccc32)cc1	-1.7	2.5	0.69	1	2.5	-4	i
COc1ccc(N2CCCC2=N)c(OC)c1	-3.6	1.6	0.7	-29	3.6	0	i
Cc1cccc(C(=O)Oc2cccc3c(O)cccc23)c1	-0.9	-2.2	0.64	15	3.1	0	i
COCCNS(=O)(=O)c1ccc(-c2ccc(Cl)cc2)cc1	0.5	-0.7	0.65	nt	0.3	7	i
CCN1CCN(C(=O)c2c(-c3c(F)cccc3Cl)noc2C)CC1	-2.9	-2.6	0.66	-8	2.8	3	nt

Some of the entries above, set out differently.
HNF4A DNA FP | LANA-H2A inh | E coli growth | ALR inh | UCH37 inh | Beta2AR agonist | FGF22 binding | smiles
-0.9 | -2.2 | 0.64 | 15 | 3.1 | 0 | i | Cc1cccc(C(=O)Oc2cccc3c(O)cccc23)c1
3.1 | 0.1 | 0.69 | 0 | -2.8 | 6 | i | COCc1ccc(-c2c(-c3ccsc3)oc(=O)c3cc(OC)c(OC)cc23)cc1

Quoted at random: 7 compounds from above
SMILES	HNF4A DNA FP	LANA-H2A inh	E coli growth	ALR inh	UCH37 inh	Beta2AR agonist	FGF22 binding
COc1ccc(N/C=C(\C=C\C#N)S(=O)(=O)c2ccccc2)cc1	1.4	1.9	0.67	nt	-93	0	i
COCc1ccc(-c2c(-c3ccsc3)oc(=O)c3cc(OC)c(OC)cc23)cc1	3.1	0.1	0.69	0	-2.8	6	i
Cc1cccc(C(=O)Oc2cccc3c(O)cccc23)c1	-0.9	-2.2	0.64	15	3.1	0	i
Brc1c(CSc2nc3ccccc3o2)nc2ncccn12	1.5	-0.5	0.71	100*	-142	-16	nt
C[C@H]1CCC[C@@]2(O[C@@H](CCO)C[C@@H](O)[C@@H]2O)O1	1.9	-5.2	nt	nt	1.6	1	i
CC1(C2CC2)NC(=O)N(CC(=O)N2CCN(c3cccc(C(F)(F)F)c3)CC2)C1=O (centres undefined)	-2.8	-3.8	0.71	4	0.5	1	i
O=C(O)C1CCC(=O)N1C1CCCC1 (centres undefined)	2.3	0.6	0.68	2	1.2	7	nt

Remaining list, next part
SMILES	HNF4A DNA FP	LANA-H2A inh	E coli growth	ALR inh	UCH37 inh	Beta2AR agonist	FGF22 binding
CCCOc1nc2c(c(=O)n(C)c(=O)n2C)n1C	0.1	0.2	0.63	-45	1.6	4	i
O=C(CSCC(=O)NC1CC1)Nc1ccc2ccccc2c1	2.4	nt	0.74	nt	2.1	2	nt
CC(C)(C)C(=O)Nc1ccc(F)cc1[N+](=O)[O-]	3.2	12*	0.67	-7	5.3	-12	i
O=[N+]([O-])c1cccc(/C=N/Nc2nc(N3CCCCC3)nc(N3CCCCC3)n2)c1	2.6	-0.2	nt	-9	nt	14	i
CCOC(=O)N1CCC(N2C(=O)c3cc(C(=O)NC4CCCCC4)ccc3C2O)CC1 (centres undefined)	6.4	-1.7	0.68	94*	3.7	-7	i
C/C(=N\NC(=O)CNC(=O)c1ccc(F)cc1)c1ccco1	-0.1	3.5	nt	15	nt	6	i
COc1cccc(NC(=O)CN2C(=O)NC3(CCCc4ccccc43)C2=O)c1 (centres undefined)	4.0	nt	0.7	nt	0.3	4	i
CC(C)CCn1c(=O)c2sccc2n2c(CCCC(=O)N3CCC(N4CCCCC4)CC3)nnc12	-1.4	4.5	0.69	-1	1.1	-15	i
Cc1ccc(-n2cc(CNCCn3nc(C)cc3C)c(-c3ccc(F)cc3)n2)cc1	-0.9	7.5	0.66	-5	2.3	8	i
COc1cc(CNC2CCCC2)cc(OC)c1	-0.8	3.4	0.67	-3	2.2	6	i
C=CCOC(=O)N1CCC2CC1c1cc(-c3ccc(OC)cc3)ccc12 (centres undefined)	-2.2	nt	nt	nt	nt	-4	i
CCOC(=O)C1=C(CC)Nc2ccccc2N/C1=N\S(=O)(=O)c1cccc(C(C)=O)c1	0.7	-2.9	0.68	nt	-0.1	-4	i
COc1ccc(NCc2nnc(-c3ccccc3)o2)cc1	0.5	-9.2	0.68	43	4.9	-1	i
Cc1cccc(OCc2ccccc2)n1	-0.2	nt	0.68	nt	2.6	-8	nt
CCOc1cccc(CN2CCC(n3nccc3NC(=O)C3CC3)CC2)c1O	-4.1	0.5	0.7	-2	5.5	1	i
COc1cc(OC)c(C(=O)/C=C/c2ccc(OCc3ccccc3)c(OC)c2)c(OC)c1	-1.8	0.0	0.66	-4	6.3	-1	i
O=C(COC(=O)Cc1ccc(F)cc1)Nc1cc(S(=O)(=O)N2CCOCC2)ccc1N1CCCC1	-0.6	-0.4	0.73	-4	4.3	0	i
COCCn1c(C23CC4CC(CC(C4)C2)C3)n[nH]c1=S	-2.6	-1.1	0.69	nt	-0.8	-13	nt
Cc1ccc(CNc2ncc(-c3ccccc3)n2C)o1	-4.5	-9.2	0.63	98*	-0.7	-2	nt
NC(=O)C(c1ccccc1)C1CCCC1 (centres undefined)	0.9	-1.3	0.74	0	0.9	-10	nt
COc1ccc(N2C(=O)CC(Sc3nc4c(cc3C#N)CCC4)C2=O)cc1 (centres undefined)	3.4	1.2	0.72	6	-1.5	-18	i
COc1ccccc1CNC(=O)c1ccccc1OCc1ccc(F)cc1	4.2	-3.1	0.62	65	0.5	-9	nt
CCC[C@H]1COCCS(=O)(=O)N1Cc1ccccc1F	-2.5	0.2	nt	-6	1.0	-10	i
CC1(C)CC2(CCO1)OC(=O)CC2C(=O)Nc1c(Cl)cccc1Cl (centres undefined)	-0.3	-2.2	0.65	-9	3.5	-1	i
COC(=O)c1c(CCl)noc1C(=O)NCC1CCCO1 (centres undefined)	0.9	-5.8	0.67	nt	0.1	-3	i

The list goes on:
SMILES	HNF4A DNA FP	LANA-H2A inh	E coli growth	ALR inh	UCH37 inh	Beta2AR agonist	FGF22 binding
Cc1ccccc1N(Cc1cc(=O)[nH]c2ccccc12)C(=O)C(C)C	2.6	-2.5	0.68	-1	2.1	-3	i
COc1cccc(-c2cc(C(=O)Nc3ccccc3)c3ccccc3n2)c1	2.2	1.7	0.66	-10	2.9	1	i
Cc1ccc(N2CC(O)=C(c3ccccc3)C2=N)cc1	2.0	-0.9	0.67	53	0.1	-6	i
Cc1[nH]nc2c1-c1nc3ccccc3nc1C(C)(C)C2	-2.2	1.6	0.67	99*	-318	9	nt
NC(=S)Nc1ccc(F)cc1F	3.6	-0.4	0.71	3	6.1	9	i
CC(Sc1nc2ccccc2n1C)C(=O)Nc1ccc(N2CCOCC2)cc1 (centres undefined)	3.3	-3.5	0.67	95*	2.3	-3	i
C=CCNC(=O)CCCCCNS(=O)(=O)c1ccc(OC)cc1	-2.6	3.7	0.73	-31	2.6	2	nt
OC(CN1CCc2ccccc2C1)c1ccccc1 (centres undefined)	-6.6	2.0	0.69	1	-0.1	-2	i
Cc1ccccc1-c1nc2cc(Cl)ccc2o1	0.0	1.6	0.69	-1	-3.4	2	nt
Cc1ccc(C2=NN(C(=O)CCCC(=O)O)C(c3ccco3)C2)cc1 (centres undefined)	3.4	-9.7	0.67	11	-2.0	-1	i
CC(=O)Nc1ccc(N2C(=O)C3C4CC(=O)C(c5ccccc54)C3C2=O)cc1 (centres undefined)	0.4	-0.2	0.77	-9	-0.5	5	nt
O=C(N/N=C/c1ccc(Br)o1)c1cccnc1	-0.4	5.2	nt	-16	nt	0	i
Cc1nn(C(=O)c2cccs2)c(C)c1CN1C(=O)c2ccccc2C1=O	0.0	-5.2	0.64	-4	1.3	5	i
CCc1ccc(CCC(=O)N2CCN(S(=O)(=O)c3sc(C(=O)O)c(C)c3C(=O)O)CC2)cc1	2.5	nt	0.71	nt	-0.4	-2	i
CC(C)C1=C2CCCCC2NC(=O)N1 (centres undefined)	-11	7.4	0.68	-4	-1.5	8	i
CCc1ccc(C(=O)N/N=C/c2cccc3ccccc23)nc1	4.4	2.4	nt	-4	nt	-7	i
CC1CC(C)CN(CCOCCSc2ccccc2)C1 (centres undefined)	-3.2	-1.7	0.65	-1	-1.3	9	i
Cn1cnnc1SCc1ccc(C(=O)N/N=C(\CCC(=O)O)c2ccc(C(C)(C)C)cc2)cc1	4.2	+	nt	98*	nt	0	nt
O=C1CC2C(CCC23OCCO3)c2ccc3ccccc3c21 (centres undefined)	-1.8	nt	nt	nt	nt	-11	i
O=C(Nc1ccc2ccccc2n1)C1CCCCC1	-6.9	4.6	0.68	29	5.0	-1	i
COC(=O)c1ccc(CSc2nnc(NC(=O)c3cc4c(s3)CCCC4)s2)cc1	-1.0	-9.2	0.72	9	2.2	5	nt
CC1CCN(CCNC(=O)CN(C)S(=O)(=O)c2cccc3nsnc23)CC1	2.0	-2.1	0.72	-19	4.6	1	nt
CCOc1ccc(C2CC(c3ccccc3C)n3ncnc3N2)cc1 (centres undefined)	-0.9	-3.9	0.77	-14	2.1	-5	i
CC(C)(C)n1nc2c(c1NC(=O)c1ccccc1F)CS(=O)C2 (centres undefined)	1.1	-4.5	0.72	-1	7.1	-2	i
O=C(CNS(=O)(=O)c1ccccc1)NNC(=O)C(Cl)Cl	-3.2	-10	0.76	0	4.4	8	i
COc1ccc(Cl)cc1NC(=O)CN1CCN(S(=O)(=O)N2CCOCC2)CC1	-1.5	3.4	0.71	-3	2.8	10	nt
